gsp antag: antagonizes gsp, the McCune-Albright syndrome mutation; gsp-mutant cells, cAMP HTRF, 30 min; control for the full effect not named in the record; Potency, µM (doses to about 76.9 µM), for the others: at the highest dose activity change, negative = inhibition, hits mostly inhibitors; 0.4% of 340,000 active; AID 624288; active = falling curve of any shape with a large fitted effect; inconclusive = falling curve, mostly with a smaller effect; inactive = flat or rising curve; cell line not stated here;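 note: intracellular cAMP measured with PDE inhibitor Ro 20-1724 present during compound exposure; potency is the fitted concentration of half-maximal effect; % is set by controls: 0 for no effect and ±100 for the full control effect; nearly all actives have a fitted effect of over 65% in size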
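HTRF cAMP read-out (cAMP-d2 plus anti-cAMP antibody-K in lysis buffer, 30 min RT). Before lysis, cells are exposed to compounds with […] for 30 min at 37C in DPBS containing Ca/Mg, BSA and Tween 20.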
CtBP-E1A inh: blocks the CtBP interaction with E1A; 0.49% of 340,000 active; AID 651724; AlphaScreen GST-E1A/His-CtBP binding, 1536-well; stronger effect = lower value; control for the full effect not named in the record; activity change, % (no concentration beside the values); in the data active means activity change below about -65%; inconclusive means about -30% to -65%; inactive means above about -30%; note: % is set by controls: 0 for no effect and ±100 for the full control effect; compound concentration not given in the record
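Steps: dispense buffer (Tris pH 8.0, NaCl 300 mM, TCEP 1 mM, BSA, Tween 20); add 5X protein mix (GST-E1A, His-CtBP, 125 nM each); pin 23 nL compound; 2 h at 37 °C, dark; add 5X beads (50 ug/mL); 1 h; read.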
gsp ag: agonists of gsp mutant (McCune-Albright syndrome). gsp mutant cells, cAMP HTRF, 30 min; control for the full effect not named in the record. Potency, µM (highest dose often 76.9 µM), for inactives: at the top dose activation (cAMP increase), hits mostly activators. 0.13% of 340,000 active. AID 624287; active = well fitted activation curve with a large enough effect; inconclusive = small, poorly fitted or top-dose-only effect, or another doubt; inactive = no such curve, though single readings can be large or run the other way; cell line not stated here;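 note: phosphodiesterase inhibitor Ro 20-1724 added with compounds to block cAMP breakdown; potency is the fitted concentration of half-maximal effect; nearly all actives have a fitted effect of over 60% in size; about a fifth of the inactives were tested at one dose only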
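Cells stably selected in G418 were plated at 2000/well, grown 16-24 hr, then given compounds in DMSO with the PDE inhibitor […] (300 uM solution added) for 30 min at 37C; cAMP was read by HTRF.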
Sfp PPTase inh: inhibitors of Bacillus subtilis Sfp phosphopantetheinyl transferase; 3.5% of 310,000 active; Potency, µM, for inactives: max response, negative = inhibition, hits mostly inhibitors; AID 1490; Q9F4F7; Biochemical Sfp PPTase activity, qHTS; active = well fitted inhibition curve with a large enough effect; inconclusive = small, poorly fitted or top-dose-only effect, or another doubt; inactive = no such curve, though single readings can be large or run the other way;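 note: the enzyme is Sfp with the accession as filed and its product quenches rhodamine fluorescence; potency is the fitted concentration of half-maximal effect; 0% = enzyme reaction without inhibitor and -100% = no enzyme wells; top concentration of the series not given in the record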
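With Hepes-Na pH 7.6 buffer containing 10 mM MgCl2, Sfp (15 nM) modified BHQ-2-YbbR (12.5 uM) using rhodamine-CoA (5 uM). Two reads 30 minutes apart at 525/598 nm yielded each well's rate.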
ClpP mod: qHTS Assay for Activators of ClpP; ATP-dependent Clp protease proteolytic subunit (Bacillus subtilis (strain 168)), P80244; purified B. subtilis ClpP, FRET peptide cleavage, 20 min; Potency, µM (series often up to 57.5 µM), without a hit: top-dose activity change, negative = active; 1.9% of 340,000 active; active = well fitted falling curve with a large enough effect; inconclusive = small, poorly fitted or top-dose-only effect; inactive = no such curve, though single readings can be large or run the other way; note: potency is the fitted concentration of half-maximal effect; the source files actives as falling curves though it sought activators and does not explain the sign; nearly all actives have a fitted effect of over 65% in size; many hits overshoot -100%
Target sequence (P80244 whole entry, looked up): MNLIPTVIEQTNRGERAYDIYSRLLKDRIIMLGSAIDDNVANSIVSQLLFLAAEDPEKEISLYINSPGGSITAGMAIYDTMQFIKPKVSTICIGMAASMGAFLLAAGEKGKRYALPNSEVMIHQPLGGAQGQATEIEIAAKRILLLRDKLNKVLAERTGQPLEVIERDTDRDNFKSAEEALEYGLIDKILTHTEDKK
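Purified B. subtilis ClpP, 10 microg/mL final in Tris/HCl pH8 with KCl, BSA, glycerol and Tween-20, cleaved an Abz/nitrotyrosine-quenched decapeptide. Fluorescence (ex 320, em 430) was read at 0 and 20 min at room temperature. Delta was normalized to 5.8 microM ADEP and DMSO/no-enzyme controls.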
TRPV1 potentiator: enhances activation of the human vanilloid receptor TRPV1 | potentiation, % at 8.33 µM | 0.02% of 320,000 active | AID 540277 | TRPV1-expressing cells, Fluo-8 calcium influx, capsaicin EC20 potentiation; host cell line not named in the record; control for the full effect not named in the record | Q8NER1; active means potentiation above 80%; inconclusive means 30% to 80%; inactive means below 30%; note: 0% is about no effect
Target sequence (Q8NER1 whole entry, looked up): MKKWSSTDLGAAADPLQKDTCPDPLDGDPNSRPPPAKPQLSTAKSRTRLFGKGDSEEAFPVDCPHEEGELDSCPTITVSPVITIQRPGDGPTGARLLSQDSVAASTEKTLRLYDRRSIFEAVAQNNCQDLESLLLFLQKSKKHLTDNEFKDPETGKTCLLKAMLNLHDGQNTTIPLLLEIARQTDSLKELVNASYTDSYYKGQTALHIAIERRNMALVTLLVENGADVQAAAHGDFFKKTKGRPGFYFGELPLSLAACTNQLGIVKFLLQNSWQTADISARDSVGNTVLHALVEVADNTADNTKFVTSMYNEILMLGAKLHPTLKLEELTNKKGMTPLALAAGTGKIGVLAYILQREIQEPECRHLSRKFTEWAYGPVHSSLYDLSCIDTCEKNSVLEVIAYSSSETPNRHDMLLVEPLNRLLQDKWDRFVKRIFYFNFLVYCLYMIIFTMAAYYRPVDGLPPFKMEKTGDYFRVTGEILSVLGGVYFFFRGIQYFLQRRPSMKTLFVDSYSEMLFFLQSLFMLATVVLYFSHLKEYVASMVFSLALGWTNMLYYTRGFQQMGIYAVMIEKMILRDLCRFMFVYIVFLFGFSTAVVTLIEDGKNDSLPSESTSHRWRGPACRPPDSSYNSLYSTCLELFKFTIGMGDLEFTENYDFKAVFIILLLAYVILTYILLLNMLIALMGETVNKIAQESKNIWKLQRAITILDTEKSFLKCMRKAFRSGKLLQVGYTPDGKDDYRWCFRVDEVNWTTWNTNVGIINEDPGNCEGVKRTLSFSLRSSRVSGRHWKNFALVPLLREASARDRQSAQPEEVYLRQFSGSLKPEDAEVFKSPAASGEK
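Cells expressing TRPV1 were dye-loaded with Fluo-8 and read kinetically: 10 s baseline, 3 min after compound (agonist portion), then 2 min after EC20 capsaicin (allosteric enhancer portion). Calcium-bound dye fluorescence at 480/520 nm.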
Menin MLL FP FL: inhibitors of human menin-MLL interaction, wild-type MLL peptide; Fluorescence polarization, fluorescein-MLL peptide displacement from menin; FP activity change, % at 61.4 µM; 290,000 tested, under 10 active; AID 1766; inconclusive = falling polarisation curve, or a change in total fluorescence; inactive = total fluorescence flat and polarisation flat or rising; no compound was filed as active; the % refers to the polarisation; negative = inhibition;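 note: % of control where 0% means no effect; inhibitors lower the polarisation; unlabelled MLL peptide was the positive control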
An asterisk follows results filed as active; ? = inconclusive; . = not tested or not shown; & = joins results of further samples; [ ] = another dose, or the depositor's remark.

SMILES	gsp antag	CtBP-E1A inh	gsp ag	Sfp PPTase inh	ClpP mod	TRPV1 potentiator	Menin MLL FP FL
Cc1ccc(N2Cc3ccccc3C2=N)cc1[N+](=O)[O-]	12%	4	-14%	14%	.	5	-9.0
COc1cc(OC)c(OC)cc1CNCCc1ccc(OC)c(OC)c1	11%	0	-24%	3%	0.7%	1	2.2
O=c1cc(O)c2ccccc2[nH]1	0%	-6	?	-6%	.	12	2.4
O=C(O)CP(=O)(O)c1ccc(Cl)cc1	4%	1	0%	?	1.6%	-12	-3.0
O=c1[nH]c(O)c(N=Nc2ccc(Cl)c(S(=O)(=O)Nc3ccccc3Cl)c2)c(=O)[nH]1	?	-20	16%[15.4 µM]	.	-1.6%	.	.
COc1ccc(C2C(C(=O)N3CCC4(CC3)OCCO4)CC(=O)N2c2ccc(OC)cc2)cc1 (stereo unspecified)	10%	0	-26%	-1%	-7.5%	-18	-4.5
CCOC(C[n+]1c(-c2ccccc2)cc(C)cc1-c1ccccc1)OCC	9%	-6	.	.	3.7%	-2	.
CCCc1nnc(NC(=O)CCC(=O)N2CCN(Cc3ccc(OC)c(F)c3)CC2)s1	-9%	0	-34%[inhibitor]	11%	0.5%	10	-3.0
CC1CCC(NCCc2ccc3c(c2)OCO3)CC1 (stereo unspecified)	4%	36	-15%	0%	2.2%	26	-5.3
Cc1ccc(Oc2cc(NN3CCCCC3)c([N+](=O)[O-])cc2[N+](=O)[O-])c([N+](=O)[O-])c1	-7%	-24	6%	20%	-2.2%	-5	0.7
CC(C)NC1C2CCC(CC2)C1(O)c1ccc(Cl)c(Cl)c1 (stereo unspecified)	.	-6	-6%	.	0.8%	.	.
CC(=O)Nc1ccccc1C(=O)OCc1ccccc1F	-3%	8	?	7%	-27%	-2	-2.6
Nc1cc(N2CCNCC2)c([N+](=O)[O-])cc1Cl	7%	-4	-7%	10%	-1.4%	17	7.3
CN1C2CNC(=O)CC1C1CCC2C1 (stereo unspecified)	.	1	-5%	.	-0.3%	.	.
O=C1NC(=O)C(=Cc2ccccc2[N+](=O)[O-])C(=O)N1	10%	10	23%	.	-5.0%	.	.
Cc1ccc2cc(C=C(C#N)C#N)c(Cl)nc2c1	-4%	-3	-3%	56µM*	15%	-2	?
CC(=NCCN1CCOCC1)c1c(O)n(-c2ccccc2C)c(=O)[nH]c1=O	-3%	8	-39%	7%	2.2%	12	-0.8
COc1ccc(N2C(=O)/C(=C/c3ccc(C)o3)C(=O)NC2=S)c(OC)c1	1%	.	-15%	40µM*	-0.2%	11	?
Cc1cc(C)nc(OC(=O)c2ccc(Cl)cc2Cl)n1	.	.	.	33%[activator]	.	17	5.2
Cc1c(C(=O)c2cccc3ccccc23)c2cccc3c2n1[C@H](CN1CCOCC1)CO3	?	-17	.	23%&-23%	-2.7%	.	-0.3&0.3
O=C(N[C@H]1CP(=O)(Oc2ccccc2)O[C@H](COCc2ccccc2)[C@H]1O)C(Cl)(Cl)Cl (stereo partly specified)	-5%	3	-1%	9%	0.2%	-13	2.4
N[C@@H](Cc1c[nH]c2ccccc12)c1nnc(SCc2ccccc2)o1	-5%	-4	-11%	5%	-1.7%	12	9.1
O=P(Oc1ccccc1)(Oc1ccccc1)C(Nc1ccccc1)c1ccccc1 (stereo unspecified)	-14%	5	1%	21%	-1.9%	-5	-0.5
CC(C)CC12CN3CCN(CC(C3)C1O)C2 (stereo unspecified)	14%	6	-3%	23%	1.6%	3	0.3
COC(=O)C1=C(c2ccc(S(C)(=O)=O)cc2)C[C@@H]2CC[C@H]1N2C	8%	6	?	.	-1.7%	-4	.

Of the compounds above, these contain an NH in an aromatic ring:
SMILES	gsp antag	CtBP-E1A inh	gsp ag	Sfp PPTase inh	ClpP mod	TRPV1 potentiator	Menin MLL FP FL
O=c1cc(O)c2ccccc2[nH]1	0%	-6	?	-6%	.	12	2.4
O=c1[nH]c(O)c(N=Nc2ccc(Cl)c(S(=O)(=O)Nc3ccccc3Cl)c2)c(=O)[nH]1	?	-20	16%[15.4 µM]	.	-1.6%	.	.
CC(=NCCN1CCOCC1)c1c(O)n(-c2ccccc2C)c(=O)[nH]c1=O	-3%	8	-39%	7%	2.2%	12	-0.8
N[C@@H](Cc1c[nH]c2ccccc12)c1nnc(SCc2ccccc2)o1	-5%	-4	-11%	5%	-1.7%	12	9.1

Additional structures:
SMILES	gsp antag	CtBP-E1A inh	gsp ag	Sfp PPTase inh	ClpP mod	TRPV1 potentiator	Menin MLL FP FL
COCCCn1c(N)c(C(=O)OC(C)COC)c2nc3ccccc3nc21 (stereo unspecified)	-2%	-11	?	6%	?	17	0.7
CN(C)CCN(Cc1ccccc1)c1ccnc(N(C)C)c1C#N	3%	6	?	-16%	32µM*	-2	0.2
CCCCn1c(=O)c(C(=O)Nc2cnccn2)c(O)c2ccccc21	0%	8	-11%	15%	0.8%	?	4.0
CC1CN1P(=O)(Oc1ccc2ccccc2c1)N1CC1C (stereo unspecified)	8%	4	3%	.	-10%	.	.
O=C(CNC(=O)c1ccc(Br)cc1)Nc1ccc(Br)cc1C(=O)c1ccccc1	?	.	-28%	5%	-0.3%	8	1.0
Cc1ccc(S(=O)(=O)N(C)CCCC(=O)N2CCN(c3ccccn3)CC2)cc1	-2%	-3	10%	7%	32µM*	7	-1.3
CN(C)Cc1ccccc1OC(=O)N(C)C	10%	5	0%	-1%	-0.8%	16	-2.2
O=C(Oc1ccccc1)c1cccc(COC(=O)c2cnccn2)c1	-13%	9	?	-4%	1.3%	-10	1.9
O=c1ccc2cc3ccoc3c(O)c2o1	-1%	-1	.	.	-27%	.	.
CCOC(=O)CCCCCNC(=O)c1c(O)[nH]c(=O)[nH]c1=O	8%	3	.	.	-2.2%	.	.
FC(F)(F)c1ccc(NC2=NCCCS2)cc1	2%	.	-9%	15%	-0.5%	-16	6.5
CC(O)(CS(=O)(=O)c1ccc(F)cc1)C(=O)Nc1ccc(C#N)c(C(F)(F)F)c1 (stereo unspecified)	.	.	.	-19%	.	-1	1.2
CC(C)CC(N(C)C)C1(c2ccc(Cl)cc2)CCC1 (stereo unspecified)	-3%&5%	-27&-9	.	2%&10%	-4.5%&-2.5%	.	-2.4&1.1
Cc1ccn2nc(S(=O)(=O)Nc3c(F)cccc3F)nc2n1	-1%	4	29%	5%	?	0	-7.7
O=c1[nH]c(O)c(/C=C2\C=Nc3ccc(OCc4ccccc4)cc32)c(=O)[nH]1	0%	0	6%	4%	.	-2	?
c1ccc2c(c1)CC1CNCc3cccc(c31)S2 (stereo unspecified)	11%	-12	-10%	-4%	-7.2%	-10	-3.2
Cc1cc(/C=C2/C(=O)NC(=O)N(Cc3ccco3)C2=O)c(C)n1-c1ccc(C(=O)O)cc1	-6%	-1	?	-5%	.	10	31[activator]
Cc1cc(C)c2c(c1)NP(=S)(c1ccccc1)N2 (stereo unspecified)	-4%	9	-2%[15.4 µM]	.	-2.8%	.	.
O=C(c1ccccc1[N+](=O)[O-])N1CCC2(CC1)OCCO2	9%	-11	13%[15.4 µM]	4%	1.8%	6	-0.4
CNC(=S)N(C)CCc1cc2c(c(OC)c1/C=C1/C(=O)NC(=O)N(C)C1=O)OCO2	-10%	8	-13%	-20%	-0.2%	0	6.4
Cc1cc(C)c(C)c(C(O)(C(=O)O)c2ccccc2)c1C (stereo unspecified)	-11%	-21	5%	.	1.3%	.	.
c1ccc2c3c(ccc2c1)OCC1CONC31 (stereo unspecified)	0%	6	?	16%	.	12	-0.9
CC1=CC(C)C(COC(N)=O)(COC(N)=O)C(C)C1 (stereo unspecified)	-9%	-4	0%	4%	-3.9%	1	1.0
COc1cccc(C(=O)C2CCCN(C3CCOCC3)C2)c1 (stereo unspecified)	5%	.	-40%[inhibitor]	14%	-6.1%	?	1.3
Cc1ccccc1CN1CCN(Cc2ccccc2)CC1	-9%	-23	-77%[inhibitor]	-7%	-2.9%	-9	-1.4

New compounds follow.
SMILES	gsp antag	CtBP-E1A inh	gsp ag	Sfp PPTase inh	ClpP mod	TRPV1 potentiator	Menin MLL FP FL
C=CCCC1(CC)C(=O)NC(=S)NC1=O	7%	9	?	.	0.7%	.	.
COC(=O)[C@@H](c1ccccc1)C1CCCCN1 (stereo partly specified)	1%	4	.	.	0.3%	.	.
Cc1nn(-c2ccccc2)c2c1CC1(C(=O)N(C)C(=O)N(C)C1=O)C1CCCCN21 (stereo unspecified)	?	5	-33%[inhibitor]	4%	0.2%	6	4.6
CCCC12CN3CC(CCC)(CN(C1)C3c1ccccn1)C2=O (stereo unspecified)	-1%	-17	-28%	15%	0.0%&3.1%	-3	-6.0
COc1cc2c3c(c1OC)-c1cc(O)ccc1CC3NCC2 (stereo unspecified)	-3%	-5	9%	17%	?	5	0.8
CN(C)CCc1nc2ccccc2c(=O)n1-c1ccccc1	.	.	.	13%	.	-32	4.5
C=C1C(=O)OC2C1CCC(C)C1(O)C=CC(=O)C21C (stereo unspecified)	9%	2	.	.	1.7%	.	.
CCOC(=O)c1c(C)n(Cc2ccco2)c2ccc(OC)cc12	2%	1	3%	-16%	-12%	11	4.5
CN1CCN(c2nc3ccccc3c(=O)n2-c2ccccc2)CC1	9%	0	?	11%	-5.2%	-1	4.1
COP(=O)(OC)C1(Nc2ccc(C)cc2)CCCCC1	-12%	-2	21%	-2%	-3.8%	4	0.7
COc1ccc(C(C)=O)cc1CC(C(=O)c1ccccc1)N(C)C (stereo unspecified)	1%	0	2%	-5%	-0.5%	5	2.6
CN1C(=O)NC(=O)/C(=C\C=C\c2ccccc2[N+](=O)[O-])C1=O	?	-18	-31%	18µM*	.	1	-1.7
O=C(/C=C/C=C/c1ccccc1)CC1(O)C(=O)Nc2ccccc21 (stereo unspecified)	.	1	0%[15.4 µM]	-13%	.	-20	2.1
O=C(Cc1ccc(N(CCCl)CCCl)cc1)NC(Cc1ccc(Cl)cc1)C(=O)O (stereo unspecified)	9%	9	-1%	12%	-0.1%	-3	4.4
Cc1ccccc1OCCN=Cc1c(O)n(C)c(=O)n(C)c1=O	22%	2	-31%[inhibitor]	2%	-0.6%	14	2.4

Bioassay records deposited in PubChem by National Center for Advancing Translational Sciences (NCATS).

Some of the compounds tested; rates above refer to the full screens.
